Vif A3G = HIV-1 Vif–A3G interaction blockers – biochemical, TR-FRET, GST-Vif 1-94, biotin-A3G peptide, dose response retest, primary screen (AID 1117319); 260,000 compounds, 0.57% hits; TR-FRET GST-Vif / biotin-A3G peptide binding; higher % means a stronger effect; test concentration not given here; strong numbers were not always called active; one-dose inhibition, %; IC50 in µM for titrated hits;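 active = above the screen mean plus three standard deviations and confirmed in dose response; inconclusive = results disagree or hit not tested in dose response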;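 also: Vif residues 1-94 fused to GST binding biotinylated APOBEC3G peptide 110-148; 0% = full assay without inhibitor and 100% = GST in place of GST-Vif; retest series ran down from 100 µM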
AF4-AF9 inh = inhibitors of human MLL-AF4/AF9 interaction | AID 651704 | 350,000 compounds, 0.47% hits | AlphaScreen, biotin-AF4 peptide binding to FLAG-AF9 | inhibition, % at 10 µM;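 active = every replicate reaching a set inhibition limit, whatever the replicate mean, cut at about 25% in these data; inconclusive = mean inhibition reaches that limit but some replicates miss it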;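 also: 0% = plate neutral control median and 100% = total signal loss; the record names both 10 and 1 µM as test concentration; the first replicate is given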
E coli growth = E. coli growth inhibition; Escherichia coli growth, OD600, 23 h; active compounds read low; OD600 absorbance (test concentration not listed); 330,000 compounds, 0.21% hits; AID 1053175;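 active = OD600 absorbance below the run mean of sample wells minus 3.6 SD, in any replicate, cut at about 0.56 in these data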;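 also: stock transfer was 300 nL into about 60 µL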
ALR inh = human ALR oxidase inhibition via reduced H2O2 | 290,000 compounds, 3.8% hits | purified ALR, DTT oxidation, H2O2 HRP-luminol luminescence | inhibition, % (no concentration beside the values);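 active = mean and each replicate at 75% or more; inconclusive = only one of the two met; inactive = neither met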;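 also: stock transfer was 7.5 nL into about 7.5 µL; 0% = neutral wells and 100% = wells with inactivated enzyme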
Target sequence (P55789 whole entry, looked up): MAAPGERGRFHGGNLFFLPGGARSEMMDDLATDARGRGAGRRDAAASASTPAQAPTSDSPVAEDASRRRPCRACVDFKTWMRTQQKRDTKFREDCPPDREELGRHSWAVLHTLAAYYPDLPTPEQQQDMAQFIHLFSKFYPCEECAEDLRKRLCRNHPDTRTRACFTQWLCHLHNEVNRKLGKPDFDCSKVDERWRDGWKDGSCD
rRNA inh HTS = selective bacterial rRNA inhibition in E. coli; GFP signal change (wild-type ribosome), % (concentration not given with the values); E. coli WT GFP vs humanized-ribosome RFP mutants, fluorescence, 24 h; active compounds read low; DMSO median 0, no signal -100; 350,000 compounds, 1.6% hits;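 active = significant combined selectivity score with lowered wild-type GFP, culture density cut under 30%, mutant RFP and density less affected; inactive = any of these conditions unmet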; also: one replicate is shown; some compounds called inactive have numbers as strong as hits
FGF22 binding = binders of recombinant human FGF22 by thermal shift; AID 651658; SYPRO orange fluorescence; percent of sucrose octasulfate shift, DMSO zero; 340,000 compounds, 1.5% hits; calls only at 9.99 µM;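 active = melting point raised past a set limit in the mean and every replicate; inconclusive = no clear call; three in four hits are not shown here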
Target sequence (Q9HCT0 whole entry, looked up): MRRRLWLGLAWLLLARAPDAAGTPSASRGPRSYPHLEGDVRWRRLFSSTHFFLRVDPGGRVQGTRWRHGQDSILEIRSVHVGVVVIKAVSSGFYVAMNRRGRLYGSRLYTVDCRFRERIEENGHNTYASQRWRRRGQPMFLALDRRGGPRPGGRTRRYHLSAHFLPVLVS
HNF4A DNA FP = change in binding of human HNF4 alpha to DNA | P41235 | HNF4a-FITC DNA binding, fluorescence polarization, 1 h | activity change, % at 10 µM | 360,000 compounds, 0.3% hits | AID 1224865; in the data active = activity change above about 30%, passing the limit was not always enough;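 also: controls were the assay level and a saturating level of protein; the project sought stronger binding though the title names inhibitors; some compounds called inactive have numbers as strong as hits; positive values seem to mean higher polarization but the record does not say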
Target sequence (P41235 whole entry, looked up): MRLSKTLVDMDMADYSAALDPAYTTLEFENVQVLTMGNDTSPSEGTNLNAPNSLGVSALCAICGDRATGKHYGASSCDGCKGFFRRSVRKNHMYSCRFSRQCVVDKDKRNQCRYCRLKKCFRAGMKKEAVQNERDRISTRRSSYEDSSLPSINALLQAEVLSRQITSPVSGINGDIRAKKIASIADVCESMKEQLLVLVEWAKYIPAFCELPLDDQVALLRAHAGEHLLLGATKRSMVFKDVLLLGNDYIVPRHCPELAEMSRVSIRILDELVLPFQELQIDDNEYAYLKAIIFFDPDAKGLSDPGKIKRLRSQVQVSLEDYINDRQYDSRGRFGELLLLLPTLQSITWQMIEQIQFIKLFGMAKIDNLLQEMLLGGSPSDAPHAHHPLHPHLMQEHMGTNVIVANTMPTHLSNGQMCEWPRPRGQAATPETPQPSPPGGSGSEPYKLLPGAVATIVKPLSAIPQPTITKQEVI
rRNA inh HTS OD600 = also measured in rRNA inh HTS; calls as there; OD600 change, %; measured here: OD600 growth;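 optical density of the mix in the first replicate; 0 = DMSO median and -100 = no signal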
rRNA inh HTS RFP = recorded beside rRNA inh HTS, whose call it bears; RFP signal change, %; measured here: RFP humanized mutant strains;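 first replicate; 0 = DMSO median and -100 = no signal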
The depositor's hits bear a star; i = inactive; ? = inconclusive; . = not tested or not shown; & = joins results of further samples.

SMILES	Vif A3G	AF4-AF9 inh	E coli growth	ALR inh	rRNA inh HTS	rRNA inh HTS OD600	rRNA inh HTS RFP	FGF22 binding	HNF4A DNA FP
CCOC(=O)CN1C(=O)C(=O)N(Cc2ccccc2)C1=O	-10%	-0.3	0.69	-5	-1	-3	0.2	i	3.0
CCN1[C@@H]2c3ccc(-c4cccc(F)c4)c(=O)n3C[C@@H]2[C@@H](CO)[C@@H]1C(=O)N(C)C	.	-1.6	.	.	3	12	0.6	i	.
CCOC(=O)c1c(C)c(C(=O)NCCc2ccccc2)c(C)n1C	.	-6.7	0.7	-8	3	6	0.1	i	4.5
CCC(=O)NNc1nc2c(Cl)cccc2s1	-2%	-1.7	0.68	-2	9	8	1.6	i	0.5
CC(C)(C)OC(=O)N1CCC(c2cc(=O)n3[nH]c(-c4ccc(Cl)cc4)cc3n2)CC1	9%	2.9	0.73	4	6	5	0.4	i	6.4
C[C@@H]1CN([C@H](C)CO)C(=O)c2cc(NS(=O)(=O)c3ccc(F)cc3)ccc2O[C@@H]1CN(C)Cc1ccc(Oc2ccccc2)cc1	.	1.7	.	.	-4	-21	5.3	i	.
CC(=O)c1ccc(S(=O)(=O)Nc2ccc(-c3ccc4nnc(C)n4n3)cc2)cc1	10%	0.0	0.68	-6	14	9	1.2	i	-3.9
O=C1C=C(Nc2ccc(Cl)cc2)CC(c2ccccc2)C1 (centres undefined)	2%	.	0.68	-2	.	.	.	.	0.6
CCc1cc2c(NCC3CCCO3)ncnc2s1 (centres undefined)	-1%	.	0.69	-2	.	.	.	.	5.4
C[C@H]1CN([C@@H](C)CO)C(=O)c2cccc(NC(=O)c3ccncc3)c2O[C@H]1CN(C)Cc1ccc(C(F)(F)F)cc1	.	-1.2	.	.	-1	-5	0.7	i	.
O=[N+]([O-])c1ccc(COc2ccccc2CN2CCCCC2)cc1	.	-0.8	.	.	-7	-3	1.9	i	-2.6
C=CC[C@@H](CC(=O)N[C@H](CO)Cc1ccccc1)C(=O)N[C@@H](COC(=O)[C@@H](CC=C)Cc1ccc(F)cc1)Cc1c[nH]c2ccccc12	.	6.3	.	10	4	13	-10	i	-3.1
COc1ccc(/C=C2\SC(=O)N(CCC(=O)NCCCn3ccnc3)C2=O)cc1	-5%	2.5	0.67	-4	0	-4	-1.6	i	5.8
CCOC(=O)C1CCN(C(=O)COC(=O)CSc2ccc(C(N)=O)cc2[N+](=O)[O-])CC1	1%	-0.6	0.72	-5	3	10	0.0	i	1.2
N#CCC(=O)Nc1ccc(C(=O)OCC(=O)Nc2ccccc2Sc2ccccc2)cc1	0%	-1.2	0.66	28	-33	-56	-0.3	i	3.2
CCO[C@H]1OC(C(=O)N2CCN(Cc3ccccc3)CC2)=C[C@@H](C2CCCCC2)[C@@H]1CCCO	.	-5.6	.	.	-45	-76	-13	i	-3.5
COc1cccc(C(=O)C2CCCN(C(=O)c3ccc(C#CC(C)(C)O)cc3)C2)c1 (centres undefined)	.	0.4	0.7	-5	-14	-15	-1.1	i	0.6
CCc1nnc(NC(=O)CCC(=O)NCCc2ccccc2)s1	.	-2.3	0.68	3	7	15	-0.2	i	4.5
CN(C)CCCOC(=O)COc1ccc(Br)cc1	28%	0.7	0.65	.	24	17	3.2	i	0.9
CCOc1cc(C)c(S(=O)(=O)NC2CC(C)(C)NC(C)(C)C2)cc1C	-5%	-2.1	0.69	4	9	9	1.6	i	-2.5
CN(CCc1ccccn1)C(=O)CCC1CCCN(C(=O)c2n[nH]c3c2CCCC3)C1 (centres undefined)	-3%	0.7	0.67	-3	8	10	1.8	i	1.4
COc1cccc(S(=O)(=O)Nc2cccc(C(=O)N3CCCCCC3)c2)c1	6%	.	0.7	3	.	.	.	.	-0.2
CC1CCCCN1C(=O)c1ccc(C(=O)Nc2ccc(F)cc2)cc1 (centres undefined)	.	2.6	0.67	.	5	6	0.7	i	-1.3
O=C1c2ccncc2C(=O)N1C1CCCCC1	?	.	0.69	-3	.	.	.	.	5.0
c1ccc(-c2cc3ncccc3cn2)cc1	.	-1.1	0.77	1	9	20	14	i	-6.5
COc1ccc(CNC(=O)c2ccc(CS(=O)(=O)c3ccc(C)cc3)o2)cc1	.	0.1	0.73	-3	0	2	0.4	i	0.9
CCOc1ccc(S(=O)(=O)N2CCCC(C(=O)N3CCN(CC)CC3)C2)cc1Cl (centres undefined)	.	-3.2	0.61	.	0	-1	1.2	i	2.4
CCOC(=O)C1CCN(Cc2ccc(OC)c(OCc3ccccc3)c2)CC1	3%	-7.2	0.61	-3	2	11	3.4	i	-1.6
CCCC1=Nc2cc(C(=O)N3CCN(c4ccccn4)CC3)ccc2Sc2ccc(C)cc21	.	9.0	0.66	-3	-2	1	0.0	i	9.5
C[C@@H]1CN([C@H](C)CO)C(=O)CCCn2nncc2CO[C@H]1CN(C)Cc1ccccc1C(F)(F)F	5%	0.9&-0.1	.	.	-6&-8	-9&-5	-4.6&4.5	i	-2.1
C[C@H](CO)N1C[C@H](C)[C@@H](CN(C)C(=O)CC2CC2)Oc2ncc(C#CC(C)(C)O)cc2C1=O	.	-3.9	.	.	-1	5	0.0	i	.
CC(C)n1nc(C(=O)Nc2cccc(S(=O)(=O)N3CCCCC3)c2)c2ccccc2c1=O	-11%	4.9	0.68	-2	-1	2	-0.6	i	-0.2
COc1ccc(OCCNC(=O)c2ccc(C)cc2)cc1	-9%	-1.3	0.66	1	2	9	0.0	i	-0.5
CC(=O)Nc1ccc(C(=O)N2CCc3cc4c(cc3C2C)OCCCO4)cc1 (centres undefined)	.	1.5	0.79	-2	-2	3	-7.6	i	2.7
COc1ccc(C(CNC(=O)c2ccc(S(=O)(=O)N3CCCC3)cc2)N2CCOCC2)cc1 (centres undefined)	9%	-7.4	0.71	16	4	1	-7.6	i	-0.6
CCOC(=O)c1cc2c(=O)n3cccc(C)c3nc2n(Cc2ccco2)c1=NC(=O)c1ccc(C)cc1	0%	.	0.7	.	.	.	.	.	-0.6

Compound profiles (already shown). Order of screens: Vif A3G, AF4-AF9 inh, E coli growth, ALR inh, rRNA inh HTS, rRNA inh HTS OD600, rRNA inh HTS RFP, FGF22 binding, HNF4A DNA FP
`CC(=O)Nc1ccc(C(=O)N2CCc3cc4c(cc3C2C)OCCCO4)cc1` (centres undefined) across the screens: ., 1.5, 0.79, -2, -2, 3, -7.6, i, 2.7
`COc1ccc(CNC(=O)c2ccc(CS(=O)(=O)c3ccc(C)cc3)o2)cc1` across the screens: ., 0.1, 0.73, -3, 0, 2, 0.4, i, 0.9
`CCCC1=Nc2cc(C(=O)N3CCN(c4ccccn4)CC3)ccc2Sc2ccc(C)cc21` across the screens: ., 9.0, 0.66, -3, -2, 1, 0.0, i, 9.5
`CC(C)n1nc(C(=O)Nc2cccc(S(=O)(=O)N3CCCCC3)c2)c2ccccc2c1=O` across the screens: -11%, 4.9, 0.68, -2, -1, 2, -0.6, i, -0.2

Additional results follow:
SMILES	Vif A3G	AF4-AF9 inh	E coli growth	ALR inh	rRNA inh HTS	rRNA inh HTS OD600	rRNA inh HTS RFP	FGF22 binding	HNF4A DNA FP
C[C@H](CO)N1C[C@H](C)[C@H](CN(C)C(=O)C2CCCCC2)Oc2cc(C3=CCCC3)ccc2S1(=O)=O	.	2.4	.	.	-7	-25	7.8	i	.
O=C(O)c1cccc(N/N=C/c2cn(-c3ccccc3)nc2-c2cccs2)c1	7%	0.8	.	.	-10	-9	-0.3	i	-2.5
CC(C)(C)N1CC(C(=O)Nc2ccc(S(=O)(=O)N3CCCCC3)cc2)CC1=O (centres undefined)	-7%	-2.4	0.69	-7	6	9	0.2	i	-2.6
CCN(C(=O)COC(=O)CNC(=O)c1ccc2ccccc2c1)c1c(N)n(Cc2ccccc2)c(=O)[nH]c1=O	.	-11	0.65	.	3	9	-3.8	i	-1.8
CCCCc1nc2ccccc2c(C(=O)O)c1C	3%	.	0.71	-6	.	.	.	.	-1.3
Cc1ccc(S(=O)(=O)N(C)C[C@@H]2Oc3c(NC(=O)C4CC4)cccc3C(=O)N([C@@H](C)CO)C[C@H]2C)cc1	.	-2.0	.	.	1	0	1.0	i	.
O=C1/C(=C/c2cccs2)SC(=S)N1c1ccccc1	-7%	.	0.75	.	.	.	.	.	2.2
COc1ccc(C(=O)C2CCCN(C(=O)c3ccoc3C)C2)cc1F (centres undefined)	.	0.3	0.65	-9	-3	-6	0.8	i	4.5
O=S(=O)(N[C@@H]1CC[C@@H](CCn2cc(C3(O)CCCC3)nn2)O[C@@H]1CO)c1ccc(Cl)cc1	.	0.8	.	.	-3	-5	-3.4	i	.
COc1ccc(Cl)cc1S(=O)(=O)N1CCC(C(=O)NCCc2ccccc2)CC1	.	-2.4	0.71	-2	-18	-24	-1.9	i	1.9
CCCOC1CCCN(C(=O)c2ccc(OC3CCN(Cc4ccccn4)CC3)cc2)C1 (centres undefined)	.	-1.8	0.7	5	10	11	-1.4	i	0.1
O=C(Cc1ccc(Cl)cc1)NNC(=O)Nc1cccc2ccccc12	0%	.	0.75	0	.	.	.	.	-0.6
COc1ccc(Nc2ncnc3c2c(C)c(C)n3CCCN(C)C)cc1	1%	4.5	0.63	25	0	2	-1.0	i	2.3
COCC#Cc1ccc2c(c1)O[C@@H](CN(C)S(=O)(=O)c1ccc(OC)cc1)[C@H](C)CN([C@@H](C)CO)S2(=O)=O	.	-1.3	.	.	-5	-13	4.2	i	.
C[C@H](CO)N1C[C@H](C)[C@@H](CN(C)C(=O)Nc2ccccc2)OCCCC[C@H](C)Oc2ccc(NC(=O)Nc3ccccc3)cc2C1=O	.	-4.7	.	.	-5	-5	0.8	i	.
C[C@@H]1CN([C@@H](C)CO)C(=O)c2cccc(NS(=O)(=O)c3cn(C)cn3)c2O[C@@H]1CN(C)S(=O)(=O)c1cn(C)cn1	.	-0.6	.	.	-1	7	-2.3	i	.
Cc1ccc2c(c1)nnn2C1CCN(CC(=O)N(c2ccccc2)c2ccccc2)CC1	-3%	0.5	.	-4	-27	-38	-12	i	2.2
CCCNC(=O)C1(C)CCCN(Cc2noc(-c3c(C)noc3C)n2)C1 (centres undefined)	.	-0.1	.	.	15	8	1.2	i	-1.9
CN1c2ccccc2C(=O)/C(=C\Nc2ncccn2)S1(=O)=O	.	-2.2	0.72	-4	-6	3	5.1	i	0.5
CCCNC(=O)Nc1ccc2c(c1)C(=O)N(C)C[C@H](OC)[C@H](C)CN(C)[C@@H](C)CO2	.	3.2	.	.	2	2	-0.1	i	.
O=S(=O)(c1cccc2nsnc12)N1CCc2ccccc21	23%	.	0.67	.	.	.	.	.	-5.2
O=C(Nc1cc(F)ccc1F)N[C@H]1CC[C@@H](CCn2cc(C3CCCCC3)nn2)O[C@H]1CO	.	1.3	.	.	-15	-18	-0.5	i	.
Nc1cccc2cnccc12	15%	.	0.69	45	.	.	.	.	0.0
C[C@H](CO)N1C[C@H](C)[C@@H](CN(C)Cc2ccc(Cl)c(Cl)c2)Oc2ccc(NC(=O)Nc3cccc4ccccc34)cc2C1=O	.	-0.6	.	.	4	1	-0.6	i	.
COc1ccc2c3c(n(C)c2c1)[C@@H](CO)N(Cc1ccncc1)CC31CCN(C(=O)C2CCCC2)CC1	.	-1.6	.	.	2	-3	2.2	i	.
Cn1c(N)c(C(=O)COC(=O)c2ccc(Cl)c(S(=O)(=O)N3CCCCC3)c2)c(=O)n(C)c1=O	7%	.	0.7	-2	.	.	.	.	1.0
Cn1c(=O)oc2cc(S(=O)(=O)N3CCC(C(=O)NCc4ccc(F)cc4)CC3)ccc21	1%	1.5	0.77	-9	5	3	5.8	i	3.3
Cc1c(C(=O)C(=O)N2CCN(Cc3ccc4c(c3)OCO4)CC2)c2ccccc2n1C	.	4.8	0.72	-1	-2	-8	4.2	i	-2.5

Screening results (PubChem BioAssay)

Some of the compounds tested; count on the stated rates, not on these rows.
